MARV entry inh = qHTS for Inhibitors of binding or entry into cells for Marburg Virus; Potency, µM (series often up to 49.2 µM), for inactives: top-dose activity change, negative = inhibition, usual class: inhibitors; 18,000 tested, 6.5% active; Marburg virus pseudotype entry/binding inhibition, cell-based; control for the full effect not named in the record; many of its hits are not listed in these tables; active means well fitted inhibition curve with a large enough effect; inconclusive means small, poorly fitted or top-dose-only effect; inactive means no such curve, though single readings can be large or run the other way; tested in HEK293 cells; also: luciferase read-out
LASV entry inh = qHTS for Inhibitors of binding or entry into cells for Lassa Virus; 18,000 tested, 4.1% active; AID 720533, 2013; Potency, µM (series often up to 49.2 µM), for the others: top-dose activity change, negative = inhibition, actives largely listed as inhibitors; Lassa virus pseudotyped entry inhibition, cell-based qHTS; control for the full effect not named in the record; many of its hits are not listed in these tables; active = well fitted inhibition curve with a large enough effect; inconclusive = small, poorly fitted or top-dose-only effect; inactive = no such curve, though single readings can be large or run the other way; tested in HEK293 cells; also: luciferase read-out
* hit, by the source's call; ? = inconclusive; . = not tested or not shown; & = joins results of further samples; [ ] = another dose, or the depositor's remark. % is scaled to controls: 0 for no effect and ±100 for the full control effect; potency is read from the fitted curve at half-maximal effect.

Molecule,MARV entry inh,LASV entry inh
Cc1cc(-c2ccnc(-n3ncc(C(=O)N(C)CC(O)c4ccccc4)c3C)n2)c(C)s1 (stereo not given),31%[activator],-25%
COc1ccc2[nH]cc(CCNc3nc(-c4cccc(NS(C)(=O)=O)c4)nc4ccccc34)c2c1,-19%,-7%
CCOC(=O)[C@@H]1CSCCS(=O)(=O)N1C(=O)[C@H](C)NC(=O)OC(C)(C)C,9%,-17%
COC(=O)c1ccc(CN2C(=O)C3(CC(C)=C[C@@H](C)O3)c3c(Br)cccc32)cc1 (stereo not given in full),26%&-14%[8.59 µM],-7%&-4%[8.59 µM]
CCCC[C@@H]1CN2[C@H](c3ccc(Br)cc3)[C@H](C)CC[C@H]2C(=O)O1,4%[8.59 µM],-12%[8.59 µM]
C=CC[C@@]1(c2ccccc2)Oc2ccccc2-c2nc3ccccc3nc21,-5%[8.59 µM],-30%[8.59 µM]
CC(=O)Oc1cccc2c1C(=O)c1c(OC(C)=O)cc(C(=O)O)cc1C2=O,5%,19%
Cc1cc(O)c(C(C)C)cc1Cl,8%&1%,-1%&6%
C[C@]12C[C@@](C)(C=C1C=Cc1ccc(F)cc1)C(=O)C[C@H]2c1ccc(F)cc1,5%[8.59 µM],.
CCC[C@H]1CN(c2ccc(OC)cc2)C(=O)[C@H]1CC(=O)NC,?,-14%
Cc1nc2ccccc2nc1CN1CCOc2ccc(C(C)(O)COc3ccccc3)cc2C1 (stereo not given),-3%,-7%
CNC(=O)Oc1cccc2c1OC(C)(C)C2,-12%,-10%
C=CCOC(=O)NC(c1ccc(F)c(F)c1)S(=O)(=O)c1ccc(Cl)cc1 (stereo not given),7%,-4%
Nc1ccccc1C(=O)/C=C/c1ccccc1,23%,-6%
CN(C)C(=O)Nc1ccccc1,9%,-8%
O=S1(=O)CC(O)c2cc(Br)ccc2N1Cc1cccc(F)c1 (stereo not given),25%,36%[activator]
Cc1ccc(-c2ccnc(-n3ncc(C(=O)N(C)Cc4cccc5ncccc45)c3C3CC3)n2)o1,-22%,-21%
C[C@@H]1CC[C@@]2(OC1)O[C@H]1C[C@H]3[C@@H]4CC[C@H]5C[C@@H](O)CC[C@]5(C)[C@H]4CC(=O)[C@]3(C)[C@H]1[C@@H]2C,13%[17.8 µM],4%[17.8 µM]
Cc1ccccc1-n1cc(CNC(=O)CN2Cc3ccccc3OC(C)C2)cn1 (stereo not given),-8%,5%
CCOC(=O)CNC(=O)O[C@@H]1C(=O)c2cc(OC)ccc2O[C@H]1c1cccc(OC)c1,76%[activator],39%[activator]
CC1C(=O)N(Cc2cn(CC3CCCCC3)nn2)CCS(=O)(=O)N1Cc1ccc(-c2cccc(N(C)C)c2)cc1 (stereo not given),?,?
COC(=O)C1=C(C)N(CCC(C)O[Si](C)(C)C(C)(C)C)C(=O)N(C(C)=O)C1c1ccccc1 (stereo not given),7%[8.59 µM],3%[8.59 µM]
O=C1Nc2ccc(Cl)cc2[C@@](C#CC2CC2)(C(F)(F)F)O1,-28%,-17%
Cc1ccc(-c2cc(=O)c3cc(Cl)ccc3[nH]2)cc1,42%,24%
COc1ccc2c(c1)CCc1cnc(-n3ncc(C(=O)NC4CCOC4)c3C3CC3)nc1-2 (stereo not given),-17%,?
CC(=O)c1ccc[nH]1,-4%,-6%
CCCCC1=CC2=CC(=O)C(C)(OC(=O)C3CCCC3)C(=O)C2=CO1 (stereo not given),-6%,5%
CC(=O)NC(C(=O)O)C(C)(C)SN=O (stereo not given),15%,-1%
Cc1ccc2c(c1)c1c3n2CCN[C@H]3CCC1,?,?
O=[N+]([O-])c1ccc(CN2CC(N3CCN(CCO)CC3)CS2(=O)=O)cc1 (stereo not given),64%,27%
COc1ccccc1C1CC(=O)Oc2ccc(C(C)(C)C)cc21 (stereo not given),-25%,-11%
Clc1cccc(C(c2ccc3nc[nH]c3c2)n2ccnc2)c1 (stereo not given),-11%,?
CC[C@@]12C=C(C=Cc3ccccc3)[C@](CC)(C1)[C@H](c1ccccc1)CC2=O,?,-1%[8.59 µM]
O=C(NCC1(N2CCOCC2)CCCC1)c1cnn(-c2nccc(-c3cccs3)n2)c1C1CC1,-24%,-16%
COc1cc(O)ccc1C(C)=O,3%,-8%
NS(=O)(=O)c1ccc(N=Nc2c(O)[nH]c3ccc(C(=O)NCCCn4ccnc4)cc23)cc1,-12%,?
c1ccc(C(NCCNC(c2ccccc2)c2ccccc2)c2ccccc2)cc1,7.1µM*,13µM*
COC1=C[C@H](C(=O)NCc2ccccn2)[C@H](C)[C@@H](c2ccccc2)CC1=O,87%[activator][8.59 µM],.
CC1=C(/C=C/C(C)=C/C=C/C(C)=C/C=C/C=C(C)/C=C/C=C(C)/C=C/C2=C(C)C(=O)C(O)CC2(C)C)C(C)(C)CC(O)C1=O (stereo not given),1%,4%
NCCC[C@@H](CC(=O)N[C@@H]1CCCC[C@H]1C(=O)N[C@H](CC(=O)N[C@@H](CCC(=O)O)CC(=O)O)Cc1c[nH]c2ccccc12)NC(=O)C[C@H](Cc1ccccc1)NC(=O)[C@@H]1CNCC[C@H]1N,3%,2%
CC(O)(COc1ccccc1)c1ccc2c(c1)CN(Cc1ccccn1)CCO2 (stereo not given),1%,-6%
Nc1ccc(S(=O)(=O)c2ccc(N)cc2)cc1,4%,-7%
O=C(Nc1ccc(Br)cc1)c1cccc(S(=O)(=O)Nc2ccc(Br)cc2)c1,?,22µM*
CCCCC1=CC2=C(c3ccco3)C(=O)C(C)(OC(=O)c3ccc(OC)cc3)C(=O)C2=CN1C1CCCCC1 (stereo not given),-10%[8.59 µM],12%[8.59 µM]
CN(C)Cc1ccccc1-c1cc(Nc2ccccc2)ncn1,?,-17%
C[N+]1(C)CCOC(O)(c2ccc(-c3ccc(C4(O)C[N+](C)(C)CCO4)cc3)cc2)C1 (stereo not given),8%,6%
Cn1cnnc1Sc1ccc(CN2CCOc3ccc(C4=Cc5ccccc5C4)cc3C2)o1,34%[activator],34%[activator]
CC(C)C[C@H]1C(=O)N2CCC[C@@H]2[C@@]2(O)O[C@](NC(=O)[C@@H]3C=C4c5cccc6[nH]cc(c56)C[C@@H]4N(C)C3)(C(C)C)C(=O)N12,?,-2%[17.8 µM]
N#CCCCS(=O)(=O)c1nnnn1-c1ccc(F)cc1Br,?,-23%
CCN(CC)CCCC(C)Nc1cc(/C=C/c2ccccc2Cl)nc2cc(Cl)ccc12 (stereo not given),16µM*,?
COc1ccc([C@]23Cc4ccccc4[C@H](O2)C2=C(O3)C(=O)c3ccccc3C2=O)cc1,11%[8.59 µM],5%[8.59 µM]
Cc1ccc(CN2CC(N3CCN(CCO)CC3)CS2(=O)=O)cc1 (stereo not given),11%,17%
C=C1C(=O)O[C@@H]2[C@H]3O[C@]3(C)CC/C=C(\C)CC[C@@H]12,4µM*,4.5µM*
C=CCCCCCCCCCBr,1%,-18%
NC(N)=Nc1ccc2[nH]c3c(c2c1)C[C@]1(O)[C@@H]2Cc4ccc(O)c5c4[C@]1(CCN2CC1CC1)[C@@H]3O5,4%,-5%
O=C(O)c1cc(O)c2c(c1)C(=O)c1cccc(O)c1C2=O,13µM*,-2%
NCCNCCN,?,-8%
CCC1(CC)C(=O)C=CNC1=O,22%,-11%
CC(=O)c1ccc(-c2ccc3c4c(ccc3c2)OC(CNC(=O)C(C)N2CCOCC2)C4)s1 (stereo not given),-16%,?
Cc1nc(C)c(CC(=O)N2CCOc3ccc(CN4CCOCC4)cc3C2)s1,?,7%

Compound profiles, from the list above.
Record of `Clc1cccc(C(c2ccc3nc[nH]c3c2)n2ccnc2)c1` (stereo not given) → MARV entry inh = -11%; LASV entry inh = ?
Record of `COc1ccc([C@]23Cc4ccccc4[C@H](O2)C2=C(O3)C(=O)c3ccccc3C2=O)cc1` → MARV entry inh = 11%[8.59 µM]; LASV entry inh = 5%[8.59 µM]

Random excerpt: five records from the list, in no set order.
Molecule,MARV entry inh,LASV entry inh
Nc1ccc(S(=O)(=O)c2ccc(N)cc2)cc1,4%,-7%
Cc1nc(C)c(CC(=O)N2CCOc3ccc(CN4CCOCC4)cc3C2)s1,?,7%
CCCCC1=CC2=C(c3ccco3)C(=O)C(C)(OC(=O)c3ccc(OC)cc3)C(=O)C2=CN1C1CCCCC1 (stereo not given),-10%[8.59 µM],12%[8.59 µM]
NC(N)=Nc1ccc2[nH]c3c(c2c1)C[C@]1(O)[C@@H]2Cc4ccc(O)c5c4[C@]1(CCN2CC1CC1)[C@@H]3O5,4%,-5%
N#CCCCS(=O)(=O)c1nnnn1-c1ccc(F)cc1Br,?,-23%

(next part)
Molecule,MARV entry inh,LASV entry inh
COC(=O)C(C(C)=O)C1c2ccccc2C=C(C)N1C(=O)OC (stereo not given),-30%[8.59 µM],8%[8.59 µM]
CSc1nnc(CCNC(=O)/C=C/c2cccc(F)c2)n1-c1ccc(F)cc1,12%,-12%
CS(=O)(=O)Nc1ccc(-c2cc(-c3ccccc3)cc(C(N)=O)c2N)cc1,?,.
C[C@@H](CCc1ccc(O)cc1)NCCc1ccc(O)c(O)c1,-38%,-8%
O=C1C2=C(C(=O)c3ccccc31)[C@H]1O[C@](c3ccsc3)(Cc3c1ccc1ccccc31)O2,15%[8.59 µM],3%[8.59 µM]
COC(=O)c1cc(CNC(=O)c2ccc(N(C)C)cc2)cc(NC(=O)c2ccccc2Cl)c1,2%,-6%
CCOc1ccccc1-c1ccc(C(=O)O)s1,18%[107 µM],6%[107 µM]
CC(C)C[C@@H](CC(=O)N[C@@H](CCC(=O)O)CC(=O)O)NC(=O)[C@@H]1CNCC[C@H]1NC(=O)C[C@H](CCCN)NC(=O)C[C@H](Cc1c[nH]c2ccccc12)NC(=O)[C@@H]1CNCC[C@H]1N,24%,7%
CC1CC(O)CC(C)(C)C1 (stereo not given),26%,-11%
Cc1ccccc1-c1cncnc1Nc1ccc(F)cc1,7%,1%
C=CCC1([C@H](C)CCC)C(=O)NC(=O)NC1=O,8%,-4%
O=C1C(O)=C(O)C(=O)C(O)=C1O,23%,9%
Cc1cc(-c2ccnc(-n3ncc(C(=O)NCc4cccnc4)c3C3CC3)n2)c(C)s1,0%,-14%
CCC(C)CN1C(=O)NC(c2ccccc2)C(C(=O)OC)=C1C (stereo not given),-20%[8.59 µM],.
C=C1C(=O)OC2C1CC/C(C)=C/CCC1(C)OC21 (stereo not given),?,11µM*
CC(C)C(NS(C)(=O)=O)c1nnc2n1CCN(Cc1ccc(Cl)cc1)CC2 (stereo not given),-2%,30%
COC(=O)[C@H]1CC=C[C@H]2CCN(Cc3ccc(Cl)c(Cl)c3)C(=O)[C@@H]12,-26%,-22%
COc1ccc2c(c1)O[C@@H](c1cccc(C(F)(F)F)c1)[C@H](OC(=O)NCc1ccco1)C2=O,0%,-5%
COc1cccc2c1[C@H](C=Cc1ccccc1)[C@@H]([C@H](O)CN=[N+]=[N-])OC2,-5%[8.59 µM],-18%[8.59 µM]
c1ccc(CN2CCNCC2)cc1,7%[107 µM],-1%[107 µM]

Shown with each value named: entries from further up.
C=C1C(=O)OC2C1CC/C(C)=C/CCC1(C)OC21 (stereo not given)
  MARV entry inh: ?
  LASV entry inh: 11µM*
Cc1ccc(-c2cc(=O)c3cc(Cl)ccc3[nH]2)cc1
  MARV entry inh: 42%
  LASV entry inh: 24%

Among those listed so far, these have a CF3 group.
Molecule,MARV entry inh,LASV entry inh
O=C1Nc2ccc(Cl)cc2[C@@](C#CC2CC2)(C(F)(F)F)O1,-28%,-17%
COc1ccc2c(c1)O[C@@H](c1cccc(C(F)(F)F)c1)[C@H](OC(=O)NCc1ccco1)C2=O,0%,-5%
